AID504770: growth inhibitors of E. coli YBA685 in a screen for V. cholerae RctB (chromosome II replication) inhibitors. z-score (no concentration beside the values). E. coli YBA685 rctB-dependent plasmid, OD600 growth, 3 h; stronger effect = lower value. 130,000 compounds, 0.27% hits;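 active = z-score under -2 on both plates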;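 also: wells of about 30 µL received 100 nL stock; score is relative to mean and SD of the test wells; the first replicate is given; strong numbers were not always called active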
CapD inh: CapD enzyme inhibition; purified CapD enzyme, fluorescence intensity read-out; stronger effect = lower value; some hits fall short of the stated cut; z-score (no concentration beside the values); 140,000 compounds, 0.23% hits; AID 492967;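 active = z-score under -4 in either of two replicates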;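 also: stock transfer was 100 nL into about 40 µL; score is relative to mean and spread of the plate; one replicate is shown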
The depositor's hits bear a star; i = inactive; / = no result given.

Results follow in this order: AID504770, CapD inh
CCOC(=O)c1nc(NCC(OCC)OCC)c2c3c(sc2n1)CCCC3
→ /, 82
O=C(Nc1ccc2[nH]c(=O)[nH]c2c1)c1ccccc1Br
→ 0.7, -0.36
CC(C)N(C(=O)CN1CCN(Cc2ccccc2)CC1)C(C)C
→ -0.55, /
COc1cccc(-c2nc3ccccc3c(=O)n2NC(=O)c2cc(-c3ccncc3)nc3ccccc23)c1
→ /, 0.8
CC(=O)NCCn1c(SCC(=O)NCC2CCCO2)nc2ccccc2c1=O (configuration not stated)
→ -0.9, -0.53
CCc1ccc2c(CCl)cc(=O)oc2c1
→ 2, 0.03
COc1ccccc1NC(=O)C(C)n1nc(C(=O)O)c2ccccc2c1=O (configuration not stated)
→ -0.1, /
C=CCn1c(C)cc(C(=O)CSc2nnc3ccccn23)c1C
→ 0.2, -0.41
Cc1cc(C)nc(NS(=O)(=O)c2ccc(NC(=S)NC(=O)/C=C/c3ccco3)cc2)n1
→ -0.5, /
c1ccc(CNc2nc(-c3ccccc3)[n+](-c3ccccc3)s2)cc1
→ /, -0.035
CC(C)(C)NS(=O)(=O)c1ccc(N2C(=O)CCC2=O)cc1
→ -0.65, -0.17
Cc1nc(-c2ccc(C(F)(F)F)cc2)sc1C(=O)NNC(=O)OCC(C)NC(=O)OC(C)(C)C (configuration not stated)
→ /, 11
CCn1c(SC)nnc1C(C)NS(=O)(=O)c1ccc(Cl)cc1 (configuration not stated)
→ /, -0.79
Cc1cc(N2CCN(c3ccccc3)CC2)n2cc(-c3ccccc3)nc2n1
→ /, -0.48
Cc1onc(-c2ccccc2)c1CNC(=O)CCC(=O)O
→ -0.45, 0.055
Cc1ccc(S(=O)(=O)Nc2ccc3c(c2)c2c(n3S(=O)(=O)c3ccc(C)cc3)CCCC2=O)cc1
→ /, -0.11
O=C(c1cccc(NC2=NC3CS(=O)(=O)CC3S2)c1)N1CCN(Cc2ccc3c(c2)OCO3)CC1 (configuration not stated)
→ -1.6, 0.46
Cc1nc(C(=O)O)nn1-c1cccc(C(F)(F)F)c1
→ -1.6, /
COc1ccc2c(c1)c1nc3ccccc3nc1n2CC(C)C
→ -0.25, /
O=C(N/N=C/C=C/c1ccccc1)c1ccccc1O
→ 0.1, -0.005
Cc1nc(-c2ccc(S(=O)(=O)NCc3ccccn3)s2)cs1
→ 0.2, 3.2
COc1cc(C(=O)OC(C)C(=O)NCC2CCCCC2)cc(NC(=O)c2ccco2)c1OC (configuration not stated)
→ 1.9, /
CCOc1cccc(/C=C2\SC(=S)N(CC)C2=O)c1O
→ -0.25, -0.77
CC(C)OC(=O)CSc1nc2c(c(C3CC=CCC3)c1C#N)CCC2 (configuration not stated)
→ /, 0.1
CCOC(=O)C1=C(CN2CC=C(c3ccccc3)CC2)NC(=O)NC1c1ccc(OC)cc1 (configuration not stated)
→ 0.3, -1.3
CC(=O)NC(Nc1cccc(F)c1)(C(F)(F)F)C(F)(F)F
→ 0.05, 0.67
Cn1cc(Br)c(-c2cccc(NC(=O)CC(C)(C)CC(=O)O)c2)n1
→ -1.1, -1.2
COc1ccc(C2CC(c3ccccc3)=Nc3ccccc3S2)cc1 (configuration not stated)
→ /, 0.18
CCCn1c(=O)c(C(=O)NCCc2ccccc2)c(O)c2ccccc21
→ 0.3, 0.38
C=CCN(CC=C)Cn1[nH]c(-c2cccs2)nc1=S
→ -0.1, /
Cc1cc(C)c(CCOC(=O)NNC(=O)/C=C/c2ccc(F)cc2Cl)c(C)c1
→ /, 14
CN(C)c1cccc(C(=O)N/C=C/n2cnc3cc(C(F)(F)F)ccc32)c1
→ -0.4, 8.9
O=C1OCCC1Sc1nnc(Cc2cccs2)n1C1CCCCC1 (configuration not stated)
→ -0.25, /
Clc1ccc(-c2nc3ccccc3n2Cc2ccc(Cl)c(Cl)c2)cn1
→ /, 14
Cc1[nH]c2ccccc2c1C(c1ccncc1)N1CCOCC1 (configuration not stated)
→ -0.05, -1.5
COC(=O)c1ccc2c(=O)n(CCN3CCOCC3)c(SCC(=O)Nc3ccc(OC)cc3OC)nc2c1
→ /, -0.47
Cc1csc2nc(CSc3ccc(Cl)cc3)c(Br)n12
→ -1.4, -0.27
O=C(OCC(=O)N1CCCC1=O)c1ncc(Cl)c(Cl)c1Cl
→ -0.75, /
O=C(O)C12C3C4C1C1C2C3C41C(=O)O (configuration not stated)
→ 0.25, 0.12
FC(F)(F)c1cc(Cn2c3ccccc3c3nc4ccccc4nc32)cc(C(F)(F)F)c1
→ /, 1
COc1cc(C(=O)NC(c2ccccc2)c2cc(Cl)c3cccnc3c2O)cc(OC)c1OC (configuration not stated)
→ /, 0.23
O=C(NC1CC1)c1ccc(OCc2cccc(Cl)n2)cc1
→ /, -0.38
COc1ccc(C2c3c(-c4ccc(C)cc4)n[nH]c3C(=O)N2c2ccccc2)cc1 (configuration not stated)
→ /, -0.28
CCOC(=O)C1C(=O)C=C(c2cccs2)CC1c1ccc(C)cc1 (configuration not stated)
→ -0.05, 0.38
CCCC(C)C(=O)N1CCC(Cc2ccccc2)CC1 (configuration not stated)
→ 2, 0.12

Among those listed so far, these have a thiophene ring, fused or not.
Results follow in this order: AID504770, CapD inh
CCOC(=O)c1nc(NCC(OCC)OCC)c2c3c(sc2n1)CCCC3
→ /, 82
Cc1nc(-c2ccc(S(=O)(=O)NCc3ccccn3)s2)cs1
→ 0.2, 3.2
C=CCN(CC=C)Cn1[nH]c(-c2cccs2)nc1=S
→ -0.1, /
O=C1OCCC1Sc1nnc(Cc2cccs2)n1C1CCCCC1 (configuration not stated)
→ -0.25, /
CCOC(=O)C1C(=O)C=C(c2cccs2)CC1c1ccc(C)cc1 (configuration not stated)
→ -0.05, 0.38

New compounds follow:
SMILES	AID504770	CapD inh
CCOC(=O)c1cnc2c(ccc3ccccc32)c1NC1CC(C)(C)NC(C)(C)C1	-0.05	-0.035
COc1ccc(C(C#N)=C2C=CC(=NO)C=C2)cc1	/	-3.5
O=C1NC(=Nc2ccccc2)SC1Cc1ccc(Br)cc1 (configuration not stated)	/	0.36
CC(CS(=O)(=O)c1ccccc1)N1CCCCC1 (configuration not stated)	-0.75	0.21
COc1ccc(Cn2c(=O)c3ccccc3n3c(-c4ccccc4O)nnc23)cc1	1.1	-0.47
O=C1NC(=NC2CCCC2)S/C1=C\c1cn(-c2ccccc2)nc1-c1cccs1	1.2	/
Cc1ccc(-c2noc(CCC(=O)N3CCCCC3C)n2)cc1 (configuration not stated)	-0.05	0.015
O=C(O)c1cc(C(=O)O)c2cccc(Cl)c2n1	-0.75	0.71
COc1cc(OC)nc(-c2cccc(NC(=O)c3ccc(-c4ccccc4)cc3)c2)n1	/	2.5
COc1ccc(N/C=C(/C#N)c2nc(-c3cccs3)cs2)cc1	-0.7	-0.035
CCN(CC)c1ncnc2sc(C(=O)Nc3cc(Cl)ccc3OC)c(C)c12	/	-0.13
COC(=O)c1[nH]c2ccccc2c1NC(=O)CN(C)C	/	2.5
COC(=O)C1=C(NC(=O)COc2ccccc2)CCS1	0	i
N#Cc1c(NC(=O)CCCCl)sc2c1CCC2	0.75	0.075
Clc1nc2ccccc2c(N2CCOCC2)c1CNc1ccc(N2CCOCC2)cc1	-0.1	/
CCCOc1ccc(/C=C2/SC(=O)N(CN3CCCCC3)C2=O)cc1	-0.2	-1.2
O=C(NCCO)c1cc2sc3ccccc3c2s1	0.3	19
O=C(O)CC1(CC(=O)Nc2ccc(OC(F)(F)F)cc2)CCCC1	-0.45	0.26
O=C(c1c[nH]c2ccccc12)C(c1ccccc1)N1CCN(c2ccc(O)cc2)CC1 (configuration not stated)	0.05	/
COc1ccc(OC)c(-c2csc(=NC(C)C)n2/N=C2\C(=O)N(C)c3ccccc32)c1	0.65	/
C/[N+]([O-])=C\c1ccc(C(F)(F)F)cc1	0.3	/
CN(C)C(CNC(=O)Cc1ccc(Cl)c(Cl)c1)c1ccco1 (configuration not stated)	-0.75	/
Clc1ccc(CSc2nsc(SCc3ccc(Cl)cc3)n2)cc1	/	0.33
CC(C)CC1NC(=O)N(Cc2cccc(Br)c2)C1=O (configuration not stated)	-0.2	/
Cc1cc(NC(=O)c2cccs2)no1	-1.1	0.24
O=C(Nc1ccc(SC(F)(F)F)cc1)Nc1ccc(Sc2ccc(Cl)cc2)nc1	/	0.18
CCOC(=O)C1=C(C)N=c2s/c(=C\c3ccc(Br)o3)c(=O)n2C1c1cc(OC)ccc1OC (configuration not stated)	/	0.28
Cc1ccc(-c2cc(C(F)F)nc(S(C)(=O)=O)n2)cc1	-1.8	32
Cc1nnc(NC(=O)CC2CC3CCC2C3)s1 (configuration not stated)	-3.4	/
O=C(Cc1ccccc1)Nc1cccc(N2C(=O)C3CC=CCC3C2=O)c1 (configuration not stated)	0.1	0.43
Cc1ccc(NC(=O)C2C3C=CC(C3)C2C(=O)O)cc1 (configuration not stated)	0.5	0.83
COc1cccc(C(=O)N2CCCc3ccccc32)c1	2	/
COc1ccc(OC)c(/C=c2\s/c(=C(/C#N)c3nnc4n3CCCCC4)n(-c3ccccc3)c2=O)c1	3.5	/
O=C(NCCC1=CCCCC1)c1cc(=O)[nH]c2ccccc12	-0.2	/
O=C(CN1CCN(c2ncccn2)CC1)N(Cc1ccccc1)c1ccc(F)cc1	-0.25	/
O=C1NCCN1CCNS(=O)(=O)c1cccs1	0.1	0.95
Cc1cc(-n2nc(C)cc2C)nc(NS(=O)(=O)c2ccccc2Cl)n1	/	0.61
COc1cnc(-c2cccnc2)nc1-c1ccccc1	/	0.11
CC1(C)CC(=O)C2=C(C1)Nc1cc(C(=O)c3ccccc3)ccc1NC2c1cccc([N+](=O)[O-])c1 (configuration not stated)	/	0.42
CC(C)(C)NC(=O)N1CCC2(CC1)CC(=O)c1ccccc1O2	0.2	/
COc1ccc(NC(=O)c2ccco2)cc1NC(=O)C(C)C	-0.3	/
CCOCCN1CCN(c2c3c(nc4cc(-c5cccc(C)c5)nn24)CCC3)CC1	-0.7	/
CCOc1ccc(-n2c(=S)sc3c(=O)[nH]c(SCC(=O)N4CCC(C)CC4)nc32)cc1	/	-0.48
CN(C(=O)C(Cc1ccccc1)n1cccc1)C1CCCCC1 (configuration not stated)	0.6	-0.12
CC(C)(C)Nc1nc(NN)nc(NC(C)(C)C)n1	-0.15	/
CCNCC(=O)N1c2ccccc2CCc2ccc(NC(=O)OC(C)C)cc21	/	0.4
Cc1ccc(Cl)cc1NC(=O)c1ccc(N2CC3CC(C2)c2cccc(=O)n2C3)c(NC(=O)/C=C/c2ccccc2)c1 (configuration not stated)	/	-0.19
COc1cccc(NC(=O)CCS(=O)(=O)c2ccccc2)c1	2.1	-0.49
Cn1c(O)c(N=NC(=O)c2ccccc2)c2ccccc21	1.6	/
O=C(CSc1nnc(CNC(=O)c2cccs2)o1)NCC1CCCO1 (configuration not stated)	-0.2	/

Other entries
SMILES	AID504770	CapD inh
O=C(NC1CC(=O)N(c2ccccc2)C1)C1CC1 (configuration not stated)	1.6	/
COc1ccc(C2=NN(CN3C(=O)C(=O)c4cc(Br)ccc43)C(c3ccc(OC)cc3)C2)cc1 (configuration not stated)	/	0.35
CCOC(=O)C1=CC(=C2C(=O)NC(=O)NC2=O)c2ccccc2O1	0.3	0.65
O=C(NC1=NCCS1)C1Cc2ccccc2CN1C(=O)c1ccco1 (configuration not stated)	0.2	/
COc1cc(C(Nc2ccc(S(=O)(=O)N3CCCC3)cc2)C(=O)NC(C)(C)C)cc(OC)c1OC (configuration not stated)	-0.4	/
O=C(Nc1ccccc1N1CCCC1)c1ccco1	-1.1	-0.59
Fc1ccccc1Nc1nc(NCc2ccccc2)c2ccccc2n1	0.65	-0.045
O=C(Nc1nccs1)c1ccc(S(=O)(=O)NCC2CCCCC2)cc1	-0.2	/
O=C(c1ccsc1)N1CC=C(c2ccccc2)CC1	-0.6	0.33
Cc1ccc(-n2nc(C)c(C3=CCCCC3)c2N)cc1	0.3	0.08

Among those listed so far, these have a furan ring, fused or not:
SMILES	AID504770	CapD inh
Cc1cc(C)nc(NS(=O)(=O)c2ccc(NC(=S)NC(=O)/C=C/c3ccco3)cc2)n1	-0.5	/
COc1cc(C(=O)OC(C)C(=O)NCC2CCCCC2)cc(NC(=O)c2ccco2)c1OC (configuration not stated)	1.9	/
CN(C)C(CNC(=O)Cc1ccc(Cl)c(Cl)c1)c1ccco1 (configuration not stated)	-0.75	/
CCOC(=O)C1=C(C)N=c2s/c(=C\c3ccc(Br)o3)c(=O)n2C1c1cc(OC)ccc1OC (configuration not stated)	/	0.28
COc1ccc(NC(=O)c2ccco2)cc1NC(=O)C(C)C	-0.3	/
O=C(NC1=NCCS1)C1Cc2ccccc2CN1C(=O)c1ccco1 (configuration not stated)	0.2	/
O=C(Nc1ccccc1N1CCCC1)c1ccco1	-1.1	-0.59

Remaining list, next part.
SMILES	AID504770	CapD inh
Cn1c(/C(C#N)=N/OC(=O)c2ccccc2)nc2ccccc21	-0.9	/
CCOC(=O)c1sc2ncccc2c1N	0	1.6
CC(=O)NC(C(N)=O)C(SCc1ccccc1)c1c[nH]c2ccccc12 (configuration not stated)	-0.65	0.26
COc1ccc(S(=O)(=O)NC(C)C(=O)N2CCN(C)CC2)cc1Cl (configuration not stated)	2.1	-0.4
COc1ccc(OC)c(NC(=O)c2sc3ncnc(N4CCCCC4C)c3c2C)c1 (configuration not stated)	/	-1.6

Screens as filed in PubChem.
